Source: PubChem BioAssay
CBX7 inh – CBX7 chromodomain binding inhibitors, primary screen, biochemical, AlphaScreen; normalised signal (fraction of DMSO) (concentration not given with the values); Chromobox protein homolog 7 (Homo sapiens), O95931; AlphaScreen His6-CBX7 / biotin-H3K27me3 peptide binding; active compounds read low; 66,000 tested, 1.1% active; in the data active means normalised signal below about 0.5;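 further: 100 nL library stock added to about 20 µL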
Target sequence (O95931 whole entry, looked up): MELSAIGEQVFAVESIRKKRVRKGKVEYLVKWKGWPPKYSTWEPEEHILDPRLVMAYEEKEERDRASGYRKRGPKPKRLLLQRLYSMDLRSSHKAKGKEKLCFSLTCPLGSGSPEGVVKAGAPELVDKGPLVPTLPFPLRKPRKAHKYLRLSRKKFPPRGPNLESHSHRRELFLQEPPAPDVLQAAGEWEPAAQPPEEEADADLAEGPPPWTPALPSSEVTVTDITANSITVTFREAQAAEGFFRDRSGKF
CBX7 inh z-score – recorded beside CBX7 inh, whose call it bears; z-score; measured here: z-score of CBX7 signal; some inactives read as strong as hits; reference of the scale not given here;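 same signal on another scale; lower means less binding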
Numbers without * were called inactive; & = joins results of further samples. Only part of the results is shown; the hit share may differ from the screen's.

| molecule | CBX7 inh | CBX7 inh z-score |
| --- | --- | --- |
| Cc1ccc2c(c1)NC(=O)C(CC(=O)NCCc1ccccc1)O2 (stereo not drawn) | 1.08 | 3 |
| Nc1nonc1-c1noc(-c2ccc(Br)o2)n1 | 0.993 | -0.177 |
| Cc1nc(-c2cccc(NC(=O)c3ccc(Br)cc3)c2)cs1 | 1.09 | 3.83 |
| CCc1ccc(NC(=O)CSc2nnc(CNC(=O)COc3ccc(Cl)cc3)o2)cc1 | 0.984 | -0.253 |
| CCOC(=O)c1c(NC(=O)COc2ccc(Cl)cc2C)sc2c1CCN(C(C)=O)C2 | 1.01 | 0.259 |
| COc1ccc(NC(=O)C2(S(=O)(=O)c3ccc(Cl)cc3)CC2)c(OC)c1 | 0.816 | -3.18 |
| CN(C)c1ccc(C(=O)CC2(O)C(=O)Nc3ccccc32)cc1 (stereo not drawn) | 1.16 | 1.65 |
| CCOc1cccc(C2CC(=O)NC3=C2C(=O)CC(C)(C)C3)c1 (stereo not drawn) | 1.09 | 0.121 |
| CCOC(=O)Cc1csc(NC(=O)COc2cc(C)c(Cl)c(C)c2)n1 | 1.06 | 1.38 |
| COc1ccc(NC(=O)c2c(NCc3ccc(OC)c(OC)c3)sc3c2CCCCC3)cc1 | 0.693 | -15.9 |
| Cc1cccc(C)c1NC(=O)C1CCCN(S(=O)(=O)c2c(C)noc2C)C1 (stereo not drawn) | 1.08 | 0.696 |
| Cc1ccc2c(c1)C(c1ccc(F)cc1)N(C(=O)c1ccc(C)c(C)c1)CC(=O)N2 (stereo not drawn) | 0.316* | -6.53* |
| O=C(NCc1cccnc1)C1CCN(c2nnc(-n3cccc3)s2)CC1 | 0.825 | -2.87 |
| N#Cc1nc(COc2ccc(F)cc2)oc1NCc1cccnc1 | 0.839 | -2.92 |
| O=C(NCc1ccc(Cl)cc1)c1cc(-c2ccc(Br)cc2)on1 | 1.07 | 0.0873 |
| CCCc1cc(C(=O)NCc2cccs2)no1 | 0.992 | -0.273 |
| CCOc1ccc(-c2nc(CSCC(=O)NC(C)CC)c(C)o2)cc1 (stereo not drawn) | 0.847 | -2.11 |
| CCC(C)NC(=O)c1ccc2c(c1)N=C(C)c1ccccc1S2 (stereo not drawn) | 1.08 | 0.909 |
| COc1ccccc1-c1cc(C(=O)NCCCn2ccnc2)no1 | 0.894 | -1.22 |
| CC1CCCN(c2nc(-c3ccc(Br)cc3)nc3ccccc23)C1 (stereo not drawn) | 1.22 | 2.15 |
| CCCCc1ccc(NC(=O)CSc2nnc(CNC(=O)COc3ccc(Cl)cc3)o2)cc1 | 1 | 0.0111 |
| O=C(NCCO)c1cccnc1Oc1ccc(Cl)cc1 | 0.913&1.09 | -1.34&0.0962 |
| O=C1CC2c3ccccc3C1C1C(=O)N(c3ccc(Cl)c(Cl)c3)C(=O)C21 (stereo not drawn) | 0.956 | -0.564 |
| CCN(CC)CCNC(=O)c1ccc2c(c1)N(Cc1c(F)cccc1Cl)C(=O)CS2 | 1.15 | 0.267 |
| Cc1oc(-c2ccccc2F)nc1CN1CCC(C(=O)NCCCN2CCCC2=O)CC1 | 0.992 | -0.2 |
| CCOC(=O)c1ccc2c(c1)NC(=O)C(N1CCOCC1)S2 (stereo not drawn) | 1.41 | 0.839 |
| Cc1ccc2c(c1)-c1c(cnn1CC(=O)NC1CCCC(C)C1C)CO2 (stereo not drawn) | 1.04 | 1.09 |
| COc1ccc(C(=O)Nc2nc3ccc(S(C)(=O)=O)cc3s2)cc1 | 1.03 | 0.773 |
| Cc1cc(N2CCC(C(=O)NCCCN3CCCC3)CC2)n2nc(C)c(-c3ccc(Cl)cc3)c2n1 | 1.06 | 0.16 |
| CC(=O)C12c3ccccc3C(c3ccccc31)C1C(=O)N(c3cccc(C(F)(F)F)c3)C(=O)C12 (stereo not drawn) | 1.03 | 0.32 |

Ordered by molar mass (falling): part of the list above
| molecule | CBX7 inh | CBX7 inh z-score |
| --- | --- | --- |
| Cc1ccc2c(c1)C(c1ccc(F)cc1)N(C(=O)c1ccc(C)c(C)c1)CC(=O)N2 (stereo not drawn) | 0.316* | -6.53* |
| Cc1cccc(C)c1NC(=O)C1CCCN(S(=O)(=O)c2c(C)noc2C)C1 (stereo not drawn) | 1.08 | 0.696 |
| N#Cc1nc(COc2ccc(F)cc2)oc1NCc1cccnc1 | 0.839 | -2.92 |

Returning to the listing; the four compounds before the break are reprinted first.
| molecule | CBX7 inh | CBX7 inh z-score |
| --- | --- | --- |
| Cc1ccc2c(c1)-c1c(cnn1CC(=O)NC1CCCC(C)C1C)CO2 (stereo not drawn) | 1.04 | 1.09 |
| COc1ccc(C(=O)Nc2nc3ccc(S(C)(=O)=O)cc3s2)cc1 | 1.03 | 0.773 |
| Cc1cc(N2CCC(C(=O)NCCCN3CCCC3)CC2)n2nc(C)c(-c3ccc(Cl)cc3)c2n1 | 1.06 | 0.16 |
| CC(=O)C12c3ccccc3C(c3ccccc31)C1C(=O)N(c3cccc(C(F)(F)F)c3)C(=O)C12 (stereo not drawn) | 1.03 | 0.32 |
| Cn1c2ccccc2c2c(C(=O)N3CCC(C(N)=O)CC3)cn(C3CCCC3)c(=O)c21 | 1.03 | 0.824 |
| O=C(NCc1ccc(F)cc1)c1cnn2c(C(F)(F)F)cc(-c3cccs3)nc12 | 1.06 | 0.381 |
| COc1ccc(-c2nn(C)c(=O)c3ccccc23)cc1CNC(=O)COc1cccc(C)c1 | 0.865 | -1.2 |
| O=C(C1CCN(c2ccc(N3CCOCC3)nn2)CC1)N1CCN(Cc2ccccc2)CC1 | 0.961 | -0.39 |
| CC(=O)Nc1ccc(NC(=O)CC2Sc3ccccc3NC2=O)cc1 (stereo not drawn) | 0.994 | -0.182 |
| O=C(COCc1cc(-c2ccc(F)cc2)on1)Nc1ccccc1C(F)(F)F | 1.21 | 2.33 |
| O=C(NCCc1nc2ccccc2[nH]1)c1ccc(Cl)cc1Cl | 1.13 | 0.558 |
| CCN(Cc1ccccc1)S(=O)(=O)c1ccc2c(c1)CC(C)N2C(C)=O (stereo not drawn) | 0.823 | -0.713 |
| O=C(NC1CCCC1)c1ccc2c(c1)N(Cc1ccc(F)cc1Cl)C(=O)CS2 | 0.99 | -0.098 |
| CCOCCCNC(=O)c1c[nH]c2ccc(S(=O)(=O)Nc3ccc(CC)cc3)cc2c1=O | 0.938 | -0.784 |
| CC(C)C1C(c2ccccc2)NC(c2ccccc2)CC1(O)c1ccc(F)cc1 (stereo not drawn) | 1.02 | 0.86 |
| CCCS(=O)(=O)c1c(S(=O)(=O)CCC)c2ccc(C(N)=O)cn2c1C(=O)OC | 1.04 | 0.0746 |
| O=C(CCNS(=O)(=O)c1ccc2c(c1)CCC(=O)N2)Nc1cccc(Cl)c1 | 1.01 | 0.518 |
| C=CCn1c(=N)n(CC(O)COc2ccc(OC)cc2)c2ccccc21 (stereo not drawn) | 0.974 | -0.113 |
| CCC(C)Sc1nnc(Cc2cc(=O)[nH]c(=O)[nH]2)n1-c1ccc(F)cc1 (stereo not drawn) | 1.06 | 1.55 |
| O=C(NC1CCN(Cc2ccccc2)CC1)C1CCN(S(=O)(=O)c2cnc[nH]2)CC1 | 1.08 | 0.917 |
| COc1ccc(CCNC(=O)c2cc3c(-c4ccc(Cl)cc4)nn(C)c3s2)cc1OC | 1.18 | 0.752 |
| CCCCCn1c(C(C)NC(=O)c2ccc(OC)c(OC)c2)nc2ccccc21 (stereo not drawn) | 0.949 | -1.36 |
| CC(=O)c1cccc(Nc2nc(-c3c(C)nc4ncccn34)cs2)c1 | 0.851 | -2.78 |
| CC1=Nc2cc(C(=O)NC3CC3)ccc2Sc2ccc(Br)cc21 | 1.01 | 0.188 |
| NC(=O)CSc1oc(-c2cccs2)nc1S(=O)(=O)c1ccc(F)cc1 | 1.01 | 0.0221 |
| Nc1nonc1-c1noc(-c2cccs2)n1 | 1.03 | 0.662 |
| CCc1nnc(NC(=O)CCCOc2ccccc2C)s1 | 0.97 | -0.842 |
| CCCOc1ccc(N2C(=O)CC(NCc3ccc(OC)c(OC)c3)C2=O)cc1 (stereo not drawn) | 1.08 | 2.24 |
| COc1cccc(-c2nn3c(COc4ccccc4)nnc3s2)c1 | 1.02 | 1.02 |
| COc1ccc(Nc2cc(C(=O)NCCCN(CC(C)C)CC(C)C)c3ccccc3n2)cc1 | 1.07 | 0.0657 |
| COc1ccc(-c2cc(C(=O)Nc3cccc(C(F)(F)F)c3)c3ccccc3n2)cc1 | 1.16 | 8.04 |
| COc1cc2[nH]c(=O)n(CCCCCC(=O)NCc3ccc4c(c3)OCO4)c(=O)c2cc1OC | 0.968 | -0.808 |
| CCCOc1ccc(C(=O)Nc2c(C(=O)c3ccc(Cl)cc3)oc3ccccc23)cc1 | 1.05 | 0.318 |
| COc1ccc(NC(=O)CCc2c(C)nc3ncnn3c2C)cc1Cl | 1.05 | 1.1 |
| Cc1ccc(-c2nc3ccc(Cl)cn3c2Nc2ccccc2C)s1 | 0.996 | -0.0451 |
| CC1(C)CC(NC(=O)C(=O)Nc2nc3ccccc3s2)CC(C)(C)N1 | 0.987 | -0.568 |

Taken from above:
Entry of COc1cccc(-c2nn3c(COc4ccccc4)nnc3s2)c1 in CBX7 inh: 1.02
Entry of CC(=O)Nc1ccc(NC(=O)CC2Sc3ccccc3NC2=O)cc1 (stereo not drawn) in CBX7 inh z-score: -0.182

Filtered by structure: the compounds so far containing fluorine
| molecule | CBX7 inh | CBX7 inh z-score |
| --- | --- | --- |
| Cc1ccc2c(c1)C(c1ccc(F)cc1)N(C(=O)c1ccc(C)c(C)c1)CC(=O)N2 (stereo not drawn) | 0.316* | -6.53* |
| N#Cc1nc(COc2ccc(F)cc2)oc1NCc1cccnc1 | 0.839 | -2.92 |
| CCN(CC)CCNC(=O)c1ccc2c(c1)N(Cc1c(F)cccc1Cl)C(=O)CS2 | 1.15 | 0.267 |
| Cc1oc(-c2ccccc2F)nc1CN1CCC(C(=O)NCCCN2CCCC2=O)CC1 | 0.992 | -0.2 |
| CC(=O)C12c3ccccc3C(c3ccccc31)C1C(=O)N(c3cccc(C(F)(F)F)c3)C(=O)C12 (stereo not drawn) | 1.03 | 0.32 |
| O=C(NCc1ccc(F)cc1)c1cnn2c(C(F)(F)F)cc(-c3cccs3)nc12 | 1.06 | 0.381 |
| O=C(COCc1cc(-c2ccc(F)cc2)on1)Nc1ccccc1C(F)(F)F | 1.21 | 2.33 |
| O=C(NC1CCCC1)c1ccc2c(c1)N(Cc1ccc(F)cc1Cl)C(=O)CS2 | 0.99 | -0.098 |
| CC(C)C1C(c2ccccc2)NC(c2ccccc2)CC1(O)c1ccc(F)cc1 (stereo not drawn) | 1.02 | 0.86 |
| CCC(C)Sc1nnc(Cc2cc(=O)[nH]c(=O)[nH]2)n1-c1ccc(F)cc1 (stereo not drawn) | 1.06 | 1.55 |
| NC(=O)CSc1oc(-c2cccs2)nc1S(=O)(=O)c1ccc(F)cc1 | 1.01 | 0.0221 |
| COc1ccc(-c2cc(C(=O)Nc3cccc(C(F)(F)F)c3)c3ccccc3n2)cc1 | 1.16 | 8.04 |
